High-throughput results as filed in PubChem.
NOMO-1 viab: STK33 inhibitor candidate reducing NOMO-1 cell viability | NOMO-1 AML viability, CellTiter-Glo luminescence, 72 h | inhibition, % (test concentration not listed) | hit rate 7.5% among 37,000 | AID 2330;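 active means most replicates above 80%; inconclusive means exactly half above 80%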;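 further: wells of about 30 µL received 25 nL stock; 0% = median of vehicle wells and 100% = reference inhibitor level; the first replicate is given; inactives centre near 10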
Numbers without * were called inactive; ? = inconclusive.

SMILES	NOMO-1 viab
C[C@H]1CN([C@@H](C)CO)C(=O)Cc2cc(NC(=O)Nc3cccc4ccccc34)ccc2O[C@H]1CN(C)S(=O)(=O)c1cn(C)cn1	2
O=C(ON1C(=O)c2ccccc2C1=O)c1ccco1	115*
Cc1nc(SCC(=O)N2CCc3ccccc32)c2c3c(sc2n1)CCCC3	-23
Cc1noc(C)c1NC(=O)N(C)C[C@H]1Oc2c(NS(=O)(=O)c3ccc(F)cc3)cccc2C(=O)N([C@@H](C)CO)C[C@H]1C	-2
C[C@@H]1CN([C@H](C)CO)C(=O)Cc2cc(NC(=O)Cc3ccccc3)ccc2O[C@H]1CN(C)S(=O)(=O)c1cn(C)cn1	-19
C[C@@H]1CN([C@H](C)CO)C(=O)c2cccc(NC(=O)Nc3ccc(C(F)(F)F)cc3)c2O[C@@H]1CN(C)Cc1ccc2c(c1)OCO2	104*
COc1ccc(Cl)cc1NC(=O)CC1NCCNC1=O (stereo unspecified)	5
COc1cc(C)c(Cl)cc1S(=O)(=O)NCC1CCCO1 (stereo unspecified)	12
C[C@H]1CN([C@@H](C)CO)C(=O)c2cc(NC(=O)CCN3CCOCC3)ccc2O[C@@H]1CN(C)Cc1ccc(C(=O)O)cc1	-7
C[C@@H]1CN([C@@H](C)CO)C(=O)c2cccc(NS(=O)(=O)c3ccccc3)c2O[C@@H]1CN(C)C(=O)Nc1ccc2c(c1)OCO2	2
COC(=O)c1ccc(NC(=O)CSc2nc3ccccc3c(=O)n2-c2ccc(Cl)cc2)cc1	21
CCn1c(SCC(=O)Nc2cc(C)c(C)cc2Br)nnc1-c1ccccc1F	10
Cc1ccc(C)c(NC(=O)CSc2ncccn2)c1	19
Cc1ccc2nc(-c3cccc(NC(=O)COc4ccccc4)c3C)oc2c1	62
CC(c1ccccc1)n1c(Cn2ncc3ccccc3c2=O)n[nH]c1=S (stereo unspecified)	6
C[C@@H]1CN([C@@H](C)CO)C(=O)Cc2cc(NC(=O)c3ccncc3)ccc2O[C@@H]1CN(C)CC1CCCCC1	10
C[C@@H]1CN([C@@H](C)CO)C(=O)c2cc(NC(=O)CCN3CCOCC3)ccc2O[C@H]1CN(C)C(=O)NC1CCCCC1	5
CCN(CC)C(=O)c1cccc(Cl)c1	8
COc1ccc(CSc2nnc(CSc3cccs3)n2C)cc1	16
C[C@@H]1CN([C@@H](C)CO)C(=O)c2cc(N(C)C)ccc2O[C@H]1CN(C)C(=O)Nc1ccc(F)cc1	15
COc1ccc(CN2C(=O)C(O)(CC(=O)c3c(C)n[nH]c3C)c3ccccc32)cc1OC (stereo unspecified)	29
Cc1cc(C)c(NC(=O)CN(c2cccc(Br)c2)S(C)(=O)=O)c(C)c1	-4
Cc1noc(C)c1NC(=O)Nc1ccc2c(c1)CC(=O)N([C@H](C)CO)C[C@H](C)[C@H](CN(C)Cc1ccc3c(c1)OCO3)O2	7
Cc1ccccc1NS(=O)(=O)c1cc(OCC(N)=O)c(C)cc1Cl	-4
C[C@@H]1CN([C@H](C)CO)C(=O)c2cccc(NS(=O)(=O)c3ccccc3)c2O[C@H]1CN(C)S(=O)(=O)c1cn(C)cn1	1
CC(C)(C)C1CCc2c(sc3nc(-c4cccs4)oc(=O)c23)C1 (stereo unspecified)	108*
CNC[C@H]1Oc2ccc(NC(=O)Nc3ccccc3)cc2CC(=O)N([C@H](C)CO)C[C@H]1C	-4
COc1ccc(-n2c(Cn3ncc4ccccc4c3=O)n[nH]c2=S)cc1	43
C[C@@H]1CN([C@H](C)CO)C(=O)c2cccc(NS(=O)(=O)c3cn(C)cn3)c2O[C@@H]1CN(C)Cc1ccncc1	-24
CC(C)NC(=O)Nc1ccc2c(c1)C(=O)N([C@@H](C)CO)C[C@@H](C)[C@@H](CN(C)S(=O)(=O)c1ccc(F)cc1)O2	12
Cc1noc(C)c1S(=O)(=O)N(C)C[C@H]1OCCCC[C@@H](C)Oc2ccc(NC(=O)Cc3ccccc3)cc2C(=O)N([C@H](C)CO)C[C@@H]1C	6
COc1ccc(NC(=O)N(C)C[C@@H]2Oc3ccc(NC(=O)Nc4ccc(C(F)(F)F)cc4)cc3C(=O)N([C@H](C)CO)C[C@@H]2C)cc1	16
CCCc1nc2c(o1)N(C(=O)OCC)C(N)=C(C#N)C21CCNCC1	-16
COC(=O)COc1ccc(NC(=O)c2ccc([N+](=O)[O-])c(C)c2)cc1	118*
CCOC(=O)c1nn(-c2ccccc2)c(C#N)c1NC(=O)c1nn(CC)cc1Br	115*
CC(=O)c1cccc(NC(=O)CN(Cc2ccc(Cl)cc2)S(C)(=O)=O)c1	5
COc1ccc(NC(=O)CSc2ccccn2)c([N+](=O)[O-])c1	19
C[C@@H]1CN([C@@H](C)CO)C(=O)c2cc(NC(=O)CCCCCC(=O)Nc3ccccc3N)ccc2O[C@H]1CN(C)Cc1ccccc1	18
C=C(C(=O)O)C1C(OC(=O)/C(=C/CO)CO)CC(C)(O)C2CC(OC(C)=O)C(C)=CC12 (stereo unspecified)	21
C[C@@H]1CN([C@@H](C)CO)C(=O)c2cc(NC(=O)C3CCCCC3)ccc2O[C@@H]1CN(C)S(C)(=O)=O	-9
C[C@H]1CN([C@@H](C)CO)C(=O)Cc2cc(NC(=O)Cc3cn(C)c4ccccc34)ccc2O[C@H]1CN(C)S(=O)(=O)c1ccc(F)cc1	8
COc1cccc(NC(=O)CSc2nnc(-c3ccccc3)n2-c2ccc(Cl)cc2)c1	29
Cc1noc(C)c1NC(=O)Nc1cccc2c1O[C@H](CN(C)Cc1ccncc1)[C@H](C)CN([C@H](C)CO)C2=O	4
COC(=O)c1ccc2c(c1)N(C)S(=O)(=O)/C(=C\Nc1ccc(Cl)cc1)C2=O	14
COC(=O)c1ccccc1NC(=O)Cn1nc(C)c([N+](=O)[O-])c1C	-24

The final two entries of the part before come first, to join the parts:
SMILES	NOMO-1 viab
COC(=O)c1ccc2c(c1)N(C)S(=O)(=O)/C(=C\Nc1ccc(Cl)cc1)C2=O	14
COC(=O)c1ccccc1NC(=O)Cn1nc(C)c([N+](=O)[O-])c1C	-24
C[C@@H]1CCCCO[C@@H](CN(C)Cc2ccc3c(c2)OCO3)[C@@H](C)CN([C@H](C)CO)C(=O)c2cc(NC(=O)Nc3ccccc3)ccc2O1	62
Cc1ccc(S(=O)(=O)N(C)C[C@H]2Oc3c(NC(=O)NC4CCCCC4)cccc3C(=O)N([C@H](C)CO)C[C@@H]2C)cc1	54
C[C@@H]1CN([C@H](C)CO)C(=O)c2cc(NS(=O)(=O)c3ccc(Cl)cc3)ccc2O[C@H]1CN(C)S(=O)(=O)c1ccc(F)cc1	11
CCC(C)C1=NN(C(=O)c2ccccc2)C(O)(C(=O)OC)C1 (stereo unspecified)	77
Cc1noc(C)c1S(=O)(=O)Nc1ccc2c(c1)C(=O)N([C@H](C)CO)C[C@H](C)[C@H](CN(C)C(=O)CCC(F)(F)F)OCCCC[C@@H](C)O2	-8
COCCCNc1ncnc(N)c1[N+](=O)[O-]	-10
O=C(CSc1nc2ccccc2s1)Nc1cccc(Cl)c1Cl	17
COC(=O)CNC(=O)c1cc(-c2ccncc2)nc2c(C)c(Cl)ccc12	41
COC(=O)c1ccccc1NC(=O)CSc1nc2ncccc2[nH]1	38
COc1ccc(S(=O)(=O)Nc2ccc3c(c2)CC(=O)N([C@@H](C)CO)C[C@H](C)[C@H](CN(C)S(=O)(=O)c2ccccc2)O3)cc1	22
CC(C)(C)c1cn2c3ccccc3nc2n1CCNC1CCCCC1	29
COc1ccc(NC(=O)N(C)C[C@@H]2Oc3ccc(NS(=O)(=O)c4ccc(F)cc4)cc3C(=O)N([C@H](C)CO)C[C@@H]2C)cc1	-15
C[C@H]1CN([C@@H](C)CO)C(=O)c2cc(NC(=O)Cn3cnnn3)ccc2O[C@@H]1CN(C)S(=O)(=O)c1ccc(Cl)cc1	18
Cc1sc(NC(=O)Cn2nc(C(F)(F)F)cc2C)c(C(N)=O)c1C	118*
C[C@@H]1CN([C@H](C)CO)C(=O)c2cccc(NC(=O)Nc3cccc4ccccc34)c2O[C@@H]1CN(C)C(=O)Nc1cccc2ccccc12	10

Random excerpt: four compounds from above.
SMILES	NOMO-1 viab
CCC(C)C1=NN(C(=O)c2ccccc2)C(O)(C(=O)OC)C1 (stereo unspecified)	77
C[C@@H]1CN([C@H](C)CO)C(=O)c2cccc(NC(=O)Nc3cccc4ccccc34)c2O[C@@H]1CN(C)C(=O)Nc1cccc2ccccc12	10
Cc1ccc(S(=O)(=O)N(C)C[C@H]2Oc3c(NC(=O)NC4CCCCC4)cccc3C(=O)N([C@H](C)CO)C[C@@H]2C)cc1	54
COC(=O)CNC(=O)c1cc(-c2ccncc2)nc2c(C)c(Cl)ccc12	41

The list continues:
SMILES	NOMO-1 viab
COc1ccc(S(=O)(=O)Nc2ccc3c(c2)CC(=O)N([C@H](C)CO)C[C@H](C)[C@H](CN(C)Cc2ccc(C(=O)O)cc2)O3)cc1	8
C[C@@H]1CN([C@H](C)CO)C(=O)Cc2cc(NC(=O)Cc3ccccc3)ccc2O[C@@H]1CN(C)CC1CCCCC1	26
Cn1c(SCC(=O)Nc2ccc(Br)cc2)nnc1-c1cccnc1	7
C[C@H](CO)N1C[C@H](C)[C@@H](CN(C)S(=O)(=O)c2ccc(Cl)cc2)Oc2ccc(N(C)C)cc2C1=O	-16
C[C@@H]1CCCCO[C@@H](CN(C)Cc2ccc(C(=O)O)cc2)[C@@H](C)CN([C@H](C)CO)C(=O)c2cc(NS(=O)(=O)c3cn(C)cn3)ccc2O1	-8
O=C(Cc1ccccc1)c1ccccc1C(=O)NCc1ccc(F)cc1	18
Cc1ccc(S(=O)(=O)N(C)C[C@@H]2Oc3ccc(NC(=O)CCN4CCOCC4)cc3C(=O)N([C@@H](C)CO)C[C@H]2C)cc1	3
C[C@@H]1CN([C@H](C)CO)C(=O)c2cccc(N(C)C)c2O[C@H]1CN(C)Cc1ccc(Oc2ccccc2)cc1	59
N#C/C(=N\O)C(=O)c1ccco1	12
COC(=O)C1=C[C@@H](O)[C@@H](O)[C@H](O[C@@H]2O[C@H](CO)[C@@H](O)[C@H](O)[C@H]2OC(=O)/C=C/c2ccccc2)C1	0
CC(=O)c1c(C)oc(NC(=O)Cn2cnc3ccccc3c2=O)c1C#N	28
C[C@@H]1CN([C@@H](C)CO)C(=O)c2cc(NC(=O)CCN3CCOCC3)ccc2O[C@@H]1CN(C)Cc1ccc2c(c1)OCO2	1
CCc1ccc(OCC(=O)Nc2ccc(C)cc2[N+](=O)[O-])cc1	-12
C[C@@H]1CN([C@H](C)CO)C(=O)Cc2cc(NS(=O)(=O)c3cn(C)cn3)ccc2O[C@@H]1CN(C)Cc1ccc2c(c1)OCO2	-3
CNC[C@H]1Oc2c(NC(=O)C3CCCCC3)cccc2C(=O)N([C@@H](C)CO)C[C@H]1C	-3

An excerpt of these results, bar-delimited.
Structure | NOMO-1 viab
Cn1c(SCC(=O)Nc2ccc(Br)cc2)nnc1-c1cccnc1 | 7
C[C@H](CO)N1C[C@H](C)[C@@H](CN(C)S(=O)(=O)c2ccc(Cl)cc2)Oc2ccc(N(C)C)cc2C1=O | -16
C[C@@H]1CCCCO[C@@H](CN(C)Cc2ccc(C(=O)O)cc2)[C@@H](C)CN([C@H](C)CO)C(=O)c2cc(NS(=O)(=O)c3cn(C)cn3)ccc2O1 | -8
O=C(Cc1ccccc1)c1ccccc1C(=O)NCc1ccc(F)cc1 | 18

The list goes on:
SMILES	NOMO-1 viab
CC(C)NC(=O)N(C)C[C@H]1Oc2ccc(NS(=O)(=O)c3ccc(Cl)cc3)cc2C(=O)N([C@H](C)CO)C[C@H]1C	-14
C[C@@H]1CCCCO[C@H](CN(C)S(=O)(=O)c2ccc(F)cc2)[C@@H](C)CN([C@H](C)CO)C(=O)c2cc(NS(C)(=O)=O)ccc2O1	20
C[C@@H]1CN([C@H](C)CO)C(=O)c2cccc(NC(=O)c3ccncc3)c2O[C@@H]1CN(C)Cc1ccc(C(=O)O)cc1	-14
Cn1c(SCC(=O)Nc2c(Cl)cc(Cl)cc2Cl)nnc1-c1ccc(Cl)cc1	2
COC(=O)COc1ccc2c(=O)c(-c3ccc(Cl)cc3)coc2c1	8
C[C@H](CO)N1C[C@H](C)[C@@H](CN(C)Cc2ccc(Oc3ccccc3)cc2)Oc2ccc(NS(=O)(=O)c3cccs3)cc2C1=O	44
C[C@@H]1CN([C@H](C)CO)C(=O)Cc2cc(NC(=O)Cc3cn(C)c4ccccc34)ccc2O[C@H]1CN(C)Cc1ccc(-c2ccccc2)cc1	?
C[C@H](CO)N1C[C@H](C)[C@@H](CN(C)Cc2ccc(Cl)c(Cl)c2)Oc2c(NC(=O)Nc3ccc(F)cc3)cccc2C1=O	99*
CC(C(=O)Nc1cc(Cl)ccc1O)N1C(=O)c2ccccc2C1=O (stereo unspecified)	13
O=C(Oc1ccc(S(=O)(=O)c2ccc(OC(=O)c3cccs3)cc2)cc1)c1cccs1	29
COc1ccc(NC(=O)Nc2ccc3c(c2)CC(=O)N([C@H](C)CO)C[C@@H](C)[C@H](CN(C)C(=O)Nc2ccc(F)cc2)O3)cc1	5
O=C(Nc1ccc(F)cc1)C1CC(=O)n2cnnc2N1 (stereo unspecified)	8
C[C@H]1CN([C@@H](C)CO)C(=O)c2cccc(NS(=O)(=O)c3cn(C)cn3)c2O[C@@H]1CN(C)C	34
CCn1c(SCC(=O)Nc2cccc(Cl)c2C)nnc1-c1ccncc1	4
C[C@H](CO)N1C[C@H](C)[C@@H](CN(C)S(=O)(=O)c2ccc(Cl)cc2)Oc2c(NC(=O)Nc3cccc4ccccc34)cccc2C1=O	19
C[C@@H]1CN([C@@H](C)CO)C(=O)Cc2cc(NC(=O)Cn3cnnn3)ccc2O[C@@H]1CN(C)S(=O)(=O)c1ccc(F)cc1	10
C[C@H]1CN([C@@H](C)CO)C(=O)Cc2cc(NC(=O)Nc3ccc(C(F)(F)F)cc3)ccc2O[C@H]1CN(C)S(=O)(=O)c1ccccc1	102*

Not all compounds are listed (hit frequency here may not be typical).
